Insulin prom inh – inhibitors of insulin promoter-driven GFP, primary screen, imaging, TRM-6 cells (human fetal islet line), eGFP reporter, cell count. reporter expression induced with tamoxifen. inhibition, % at 2 µM. hit rate 0.9% among 130,000. AID 1273, 2008;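 active = inhibition above the mean plus 3 SD, with well images judged a real hit on visual review, cut at about 60% in these data, passing the limit was not always enough; inconclusive = inhibition over the cutoff but images rejected on review; inactive = inhibition not above the cutoff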
GALR2 ag – GALR2 receptor agonists, primary screen, cell-based. Galanin receptor type 2 (Homo sapiens), O43603. GALR2-expressing cells, agonist activation read-out. activation, %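 (tested at 5 µM)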. hit rate 0.48% among 140,000. AID 803, 2007;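 active = above mean plus 3 SD of all compounds, about 5% in these data, not always enough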;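 note: 0% = vehicle buffer wells and 100% = reference agonist at full effect; tested in CHO reporter cells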
RGS16-Gao HTS – modulators of RGS16 binding to Galphao, primary screen, biochemical, human proteins, multiplexed bead flow cytometry; bead-based flow cytometry RGS16-Galphao binding, fluorescence; actives lie on both sides; binding response (% of control), % at 10 µM; hit rate 0.38% among 220,000; AID 1441, 2008;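 active = below 25% or above 175%, edge rows of some plates excepted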;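 note: Galphao activated by GDP with aluminum fluoride before binding; 100% = wells without compound and 0% = beads without RGS; some results beyond the cut were filed as inactive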
HSV replic up – enhancers of HSV replication in host cells, fold increase, host cell viability; HSV replication augmentation in cells; maximum fold increase; AID 1956, 2009; hit rate 0.005% among 220,000;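 active = peak rise of 1.5-fold or more in the series; inconclusive = self-fluorescent or not available for retest; tested in PC3 cells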;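 note: first round at 10 µM; read as green reporter fluorescence; hits show the peak of a series up to 25 µM; 1 = signal of infected wells without compound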
PKD1 inh – inhibitors of human PKD1 kinase, biochemical, fluorescence polarization; Serine/threonine-protein kinase D1 (Homo sapiens), Q15139; PKD1 kinase fluorescence polarization assay; hit rate 0.056% among 200,000; inhibition, %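 (about 10 µM by stock and volumes)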;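 active = inhibition of 50% or more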;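 note: controls were vehicle for no effect and a reference inhibitor for full effect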
Target sequence (Q15139 whole entry, looked up): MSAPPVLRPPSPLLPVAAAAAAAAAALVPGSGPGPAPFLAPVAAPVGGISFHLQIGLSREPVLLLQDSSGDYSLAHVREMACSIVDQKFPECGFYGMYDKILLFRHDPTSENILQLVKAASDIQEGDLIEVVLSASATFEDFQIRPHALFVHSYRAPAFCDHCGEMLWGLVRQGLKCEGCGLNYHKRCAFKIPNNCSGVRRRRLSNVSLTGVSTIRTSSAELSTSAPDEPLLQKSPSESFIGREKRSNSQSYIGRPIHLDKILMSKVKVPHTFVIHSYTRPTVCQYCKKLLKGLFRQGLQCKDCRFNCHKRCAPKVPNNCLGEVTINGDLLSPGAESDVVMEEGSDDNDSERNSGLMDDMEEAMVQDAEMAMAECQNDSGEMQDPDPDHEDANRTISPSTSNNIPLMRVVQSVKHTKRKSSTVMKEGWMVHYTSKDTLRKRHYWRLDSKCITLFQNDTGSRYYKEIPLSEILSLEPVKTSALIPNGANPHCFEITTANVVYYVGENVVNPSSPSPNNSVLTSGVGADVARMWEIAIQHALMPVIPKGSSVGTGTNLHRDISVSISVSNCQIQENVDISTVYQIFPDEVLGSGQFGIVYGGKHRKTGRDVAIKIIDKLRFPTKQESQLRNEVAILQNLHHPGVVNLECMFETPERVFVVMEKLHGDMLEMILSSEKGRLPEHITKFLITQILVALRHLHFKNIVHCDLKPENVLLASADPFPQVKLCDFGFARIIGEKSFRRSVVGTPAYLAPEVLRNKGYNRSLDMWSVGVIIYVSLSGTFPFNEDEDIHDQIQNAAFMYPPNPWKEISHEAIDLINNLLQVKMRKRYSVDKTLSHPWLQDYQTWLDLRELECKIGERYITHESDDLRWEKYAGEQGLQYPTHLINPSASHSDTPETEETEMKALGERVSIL
Insulin prom inh cell count – recorded beside Insulin prom inh, whose call it bears; normalized cell count, %; measured here: cell count, toxicity; reference of the scale not given here;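 cells exposed to compound for 48 h; stained nuclei by imaging scaled within each plate; lower means fewer cells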
HSV replic up primary fold – further read-out of HSV replic up, marked with its call; fold increase; compound at 10 µM; measured here: primary screen fold increase 10 uM; tested in PC3 cells;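 GFP signal in the first replicate; 1 = infected wells without compound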
Numbers without * were called inactive; i = inactive; ? = inconclusive; . = not tested or not shown. A portion of the library; rates above refer to the full screens.

SMILES	Insulin prom inh	Insulin prom inh cell count	GALR2 ag	RGS16-Gao HTS	HSV replic up	HSV replic up primary fold	PKD1 inh
O=C1CN=C(c2ccccc2)c2oc3ccc(Br)cc3c2N1	-93	98	0.1	108	i	0.88	4
Cc1cccc(NC(N)=S)c1	33	128	-2.3	102	i	0.87	-6
Nc1nonc1-n1nnc(C(=O)N/N=C/c2ccc(OCc3ccc(F)cc3)cc2)c1COc1ccccc1	.	.	.	103	i	0.72	.
N=c1sc2c(n1Cc1ccccc1)CCCC2	-3	105	-1.2	103	i	0.98	-11
CC(=NCCO)c1c(O)n(C)c(=O)n(C)c1=O	.	.	-1.9	101	i	1	1
O=C1NC(=O)C(=Cc2coc3ccc(O)cc3c2=O)C(=O)N1	.	.	.	103	.	.	.
COc1ccccc1N1CCN(Cc2cccc(OC)c2O)CC1	24	140	-1.9	117	i	1.2	-4
COc1cc2c(cc1OC)-c1c3c(cc4c1[C@@H](C2)N(C)CC4)OCO3	10	122	0.3	103	i	0.47	-7
CC(C)NC(=O)Cn1cc(C(=O)c2ccccc2F)c2ccccc21	-14	138	-2.2	108	i	1	-7
Cc1cccc(-n2c(/C=C/c3ccc([N+](=O)[O-])o3)nc3ccccc3c2=O)c1	.	.	-0.8	77	i	1	-17
CCOC(=O)C1CCN(C(C)C(=O)c2c(C)[nH]c3cc(C)ccc23)CC1 (stereo not given)	.	.	-1.7	92	i	0.85	-8
CC(=O)Nc1cc(C(=O)N2CCC3(CC2)OCCO3)ccc1Sc1ccc(F)cc1	.	.	.	99	i	0.95	-5
Clc1ccc2c(c1)C(c1ccccc1Cl)=NCc1nncn1-2	-19	108	-1.1	97	i	1.2	-11
CCCc1c(C)nc(-c2ccc(C)cc2)nc1OC(=O)N(C)C	.	.	.	105	i	1	.
Cc1cccc(C)c1OP(N)(=O)Oc1c(C)cccc1C	.	.	.	93	i	0.94	.
O=P(C(c1ccc2c(c1)OCO2)N1CCOCC1)(N1CCOCC1)N1CCOCC1 (stereo not given)	0	123	-2.2	105	i	1	-2
CC1(C)C2([N+](=O)[O-])CNCC1([N+](=O)[O-])CNC2	-171	73	-1.7	98	i	0.98	-7
COc1ccccc1-n1c(-c2cccs2)nc2ccccc2c1=O	.	.	.	97	i	1.1	5
CC1(C)C(C(=O)NCc2ccco2)C1(C)C	21	119	-1.6	96	i	0.91	-3
COc1ccccc1Cn1c(SCC(=O)C(C)(C)C)nc2cc(C(=O)N3CCC4(CC3)OCCO4)ccc2c1=O	0	133	.	99	i	0.83	-5
COc1ccc(OCC#CCN2CCCCCC2)cc1	.	.	.	97	i	0.99	-6
C=CCn1c(O)c(C(C)=NCCCN2CCOCC2)c(=O)[nH]c1=O	12	100	-1.8	102	i	0.98	-5
O=C(CCC(=O)N1CCC2(CC1)OCCO2)Nc1nnc(C(F)(F)F)s1	.	.	-2.8	100	i	0.96	-10
Cc1cc(N2CCCC2)ccc1C=C(C#N)C#N	-38	92	.	115	.	.	1
CC(=NCC1CCCO1)c1c(O)n(-c2ccc(C)cc2)c(=O)[nH]c1=O (stereo not given)	34	108	0.0	100	i	0.88	-1
C=CCn1c(O)c(C(C)=NCc2cccnc2)c(=O)[nH]c1=O	38	113	-4.0	44	i	0.84	-6
CCCCOc1ccc(CCN)cc1Cl	25	36	0.3	215	i	1.1	-8
CCC(=Nc1cc(OC)ccc1OC)c1c(O)[nH]c(=O)[nH]c1=O	-39	100	-1.1	108	i	0.96	-4
CC(C)OC(=O)Nc1ccc(N=C(N)N[N+](=O)[O-])cc1	6	141	.	104	i	0.94	-1
CCn1c(O)c(C=Nc2cc(Cl)ccc2Cl)c(=O)n(CC)c1=O	.	.	-1.0	106	i	1.1	3
CN1CCN(c2ccc(NC(=O)C(C)(C)C)cc2)CC1	54	206	-1.8	106	i	1	-1
C[C@H]1CC[C@H]2NCCN[C@H]2C1	.	.	.	82	i	0.98	.
CC(=NCCCn1ccnc1)c1c(O)n(Cc2ccccc2)c(=O)[nH]c1=O	8	106	-2.0	98	.	.	-8
O=C1NC(=O)N(c2ccccc2)C(=O)/C1=C\c1ccc([N+](=O)[O-])o1	.	.	.	96	i	1.3	.
Nc1ccc2nonc2c1[N+](=O)[O-]	.	.	.	101	?	.	9
Cc1ccccc1N1C(=O)NC(=O)/C(=C\c2ccc3c(c2)CCCN3Cc2ccccc2)C1=O	-4	89	-0.7	96	i	1.3	30
COc1ccc(OCC(=O)N2CCN(CC3CC4C=CC3C4)CC2)cc1 (stereo not given)	.	.	-0.8	104	i	0.93	0
COc1ccc2nc(NC(=O)CCc3nc(C4=CCN(C)CC4)no3)sc2c1	-43	68	-0.1	105	i	1.1	-4
O=c1[nH]c(=O)n(C2CCCCCC2)c(O)c1C=NC1CCN(Cc2ccccc2)CC1	.	.	-0.2	100	i	0.94	11
COP(=O)(OC)C(NC(=O)C(C)(C)C)=C(Cl)Cl	-7	46	-0.1	105	i	0.89	-5

Structural class: the compounds so far with a carbonyl joined to an NH by a bond outside any ring
SMILES	Insulin prom inh	Insulin prom inh cell count	GALR2 ag	RGS16-Gao HTS	HSV replic up	HSV replic up primary fold	PKD1 inh
Nc1nonc1-n1nnc(C(=O)N/N=C/c2ccc(OCc3ccc(F)cc3)cc2)c1COc1ccccc1	.	.	.	103	i	0.72	.
CC(C)NC(=O)Cn1cc(C(=O)c2ccccc2F)c2ccccc21	-14	138	-2.2	108	i	1	-7
CC(=O)Nc1cc(C(=O)N2CCC3(CC2)OCCO3)ccc1Sc1ccc(F)cc1	.	.	.	99	i	0.95	-5
CC1(C)C(C(=O)NCc2ccco2)C1(C)C	21	119	-1.6	96	i	0.91	-3
O=C(CCC(=O)N1CCC2(CC1)OCCO2)Nc1nnc(C(F)(F)F)s1	.	.	-2.8	100	i	0.96	-10
CC(C)OC(=O)Nc1ccc(N=C(N)N[N+](=O)[O-])cc1	6	141	.	104	i	0.94	-1
CN1CCN(c2ccc(NC(=O)C(C)(C)C)cc2)CC1	54	206	-1.8	106	i	1	-1
COc1ccc2nc(NC(=O)CCc3nc(C4=CCN(C)CC4)no3)sc2c1	-43	68	-0.1	105	i	1.1	-4
COP(=O)(OC)C(NC(=O)C(C)(C)C)=C(Cl)Cl	-7	46	-0.1	105	i	0.89	-5

(continued)
SMILES	Insulin prom inh	Insulin prom inh cell count	GALR2 ag	RGS16-Gao HTS	HSV replic up	HSV replic up primary fold	PKD1 inh
CC1(C)Cc2c(sc3c2C(=O)NC(c2cccnc2)N3)CO1 (stereo not given)	.	.	-1.0	82	i	1	-9
O=C(/C=C/c1ccc2c(c1)OCO2)c1c(O)n(CCc2ccccc2)c(=O)[nH]c1=O	.	.	.	109	i	0.71	.
COP(=S)(OC)SCN1C(=O)c2ccccc2C1=O	.	.	-1.3	81	i	0.97	-1
CC12CC(c3ccccc3O1)C(C(=O)OCc1ccccc1)C(=O)N2 (stereo not given)	0	74	-2.0	113	i	1.2	-12
O=C1NC(=O)C(=Cc2ccc(-c3cc(Cl)ccc3[N+](=O)[O-])o2)C(=O)N1	-273	120	.	82	.	.	-6
CCOC(=O)c1cc(CC)sc1/N=C/C1C(=O)NC(=S)NC1=O	-295	68	.	98	i	1.1	2
CCOC(=O)c1c(C)[nH]c(C(=O)C(C)N2CCCC2)c1C (stereo not given)	.	.	.	96	i	1	-9
O=c1cccc2n1CC1CC2CN(Cc2c(F)cccc2Cl)C1 (stereo not given)	3	64	-1.2	101	i	0.79	-7
CC(=O)Nc1ccc(C(c2c(O)c3ccccc3oc2=O)c2c(C)n(C)n(-c3ccccc3)c2=O)cc1 (stereo not given)	33	74	.	99	i	0.9	-6
Cc1ccc(CN2CCN(CC(=O)N3CCC4(CC3)OCCO4)C2=O)cc1	19	68	-0.5	105	i	0.95	-1
CCCCP(=O)(O)CCC(=O)O	.	.	-0.6	100	i	0.94	-6
CCC(=Nc1ccc(OC)cc1OC)c1c(O)[nH]c(=O)[nH]c1=O	18	115	-1.4	95	i	1	24
Cc1cccc(C)c1NC(=O)c1cccn(Cc2ccc3c(c2)OC(F)(F)O3)c1=O	-7	48	0.5	93	i	1	-15
Cc1cc(C)n(CCOC(=O)C2C(C=C(Cl)Cl)C2(C)C)n1 (stereo not given)	.	.	-1.4	105	i	0.93	-2
Cc1ccc(N2C(=O)NC(=O)/C(=C/c3ccc(OC(=O)c4cccs4)cc3)C2=O)cc1	3	128	-2.1	101	i	0.87	-19
CCC(=NCCCN(CC)CC)c1c(O)n(C2CCCCC2)c(=O)[nH]c1=O	60	104	-2.5	108	i	0.85	-3
CCCCCCN=C(C)c1c(O)n(CCCC)c(=O)[nH]c1=O	-31	128	0.3	106	i	1.1	-6
CN1CCN(Cc2nc3ccccc3c(=O)[nH]2)CC1	11	80	-1.4	105	i	0.92	4
O=C(COc1ccccc1)N1CCN(C2CCCC2)CC1	25	113	0.3	98	i	0.96	-4
O=C(c1ccccc1)c1cn(CC(=O)N2CCCC2)c2ccccc12	.	.	-1.9	119	i	0.99	2
COC(=O)C1=C(N)Oc2c(c(=O)oc3ccccc23)C1c1cccnc1 (stereo not given)	43	97	-1.5	107	i	0.93	2
O=c1[nH]c(CN2CC=C(c3ccccc3)CC2)nc2cc(C(F)(F)F)ccc12	-14	105	-2.1	94	i	0.97	2
NC(Cc1ccccc1)Cc1ccccc1	.	.	.	105	i	0.88	-12
O=P(C(=Nc1ccc(Cl)cc1)N1CCOCC1)(N1CCOCC1)N1CCOCC1	-44	92	-0.3	114	i	1	0
O=c1[nH]c(=O)n(Cc2ccc(F)cc2)c(O)c1C=NCc1cccnc1	-23	237	-1.1	109	i	0.81	0
Cc1cccc(N2C(=O)NC(=O)/C(=C\C=C\c3ccco3)C2=O)c1	.	.	.	94	i	1.2	.
Cn1c(O)c(C(=O)c2ccccc2Cl)c(=O)n(C)c1=O	-21	110	-1.1	106	i	0.97	-1
CC(C)NC(C)C(=O)C12CC3CC(CC(C3)C1)C2 (stereo not given)	64	48	-1.4	102	i	0.95	-6
O=C(Nc1ccc(Cl)cc1)O/N=C(\c1ccccc1)c1ccccn1	.	.	-1.6	94	i	0.77	2
O=C(c1ccc(Cl)cc1)C1CCCN(Cc2cccc3ncccc23)C1 (stereo not given)	.	.	.	99	i	0.91	8
Cc1cc([N+](=O)[O-])c(Cl)cc1NC(=O)C(C)C	11	129	0.8	93	i	0.9	-7

Screening results: PubChem, several laboratories
